# VDR inh: inhibitors of human vitamin D receptor; P11473; Potency, µM, for inactives: max response, negative = inhibition, usual class: inhibitors; hit rate 0.93% among 400,000; VDR-SRC2-3 peptide fluorescence polarization, 2 h; active = well fitted inhibition curve with a large enough effect; inconclusive = small, poorly fitted or top-dose-only effect, or another doubt; inactive = no such curve, though single readings can be large or run the other way; note: series mostly up to about 120 µM
# Target sequence (P11473 whole entry, looked up): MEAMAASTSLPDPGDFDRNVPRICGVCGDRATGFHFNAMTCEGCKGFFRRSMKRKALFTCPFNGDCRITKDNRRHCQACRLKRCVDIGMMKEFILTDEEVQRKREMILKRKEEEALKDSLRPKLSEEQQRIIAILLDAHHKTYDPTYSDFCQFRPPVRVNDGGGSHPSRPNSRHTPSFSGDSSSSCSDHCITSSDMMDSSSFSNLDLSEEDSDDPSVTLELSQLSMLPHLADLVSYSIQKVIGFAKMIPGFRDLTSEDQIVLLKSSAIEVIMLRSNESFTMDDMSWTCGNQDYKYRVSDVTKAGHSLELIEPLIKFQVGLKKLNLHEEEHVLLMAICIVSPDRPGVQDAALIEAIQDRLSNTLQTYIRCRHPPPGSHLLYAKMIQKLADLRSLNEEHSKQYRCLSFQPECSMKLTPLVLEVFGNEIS
#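 Reagent solutions, kept cold and dark, are dispensed first; compounds are then pinned in at 23 nl, plates briefly spun, and incubated 2 h at ambient temperature. Inhibition of VDR–SRC2-3 peptide binding is read by fluorescence polarization.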
# Active calls of the source: *; ? = inconclusive; & = joins results of further samples. % is set by controls: 0 for no effect and ±100 for the full control effect; potency is the fitted concentration of half-maximal effect. This is a subset, so the mix of outcomes need not match the whole.
SMILES,VDR inh
COc1ccc(Cn2nc(-c3ccccc3)c(N3CCCCC3)cc2=O)cc1,-6.6%
C[C@H](CO)N1C[C@H](C)[C@@H](CN(C)C(=O)Nc2ccccc2)Oc2c(NC(=O)Nc3ccc(C(F)(F)F)cc3)cccc2C1=O,-12.9%
CC(NC(=O)COC(=O)C1CCN(c2ccc(C(F)(F)F)cn2)CC1)c1ccc(F)cc1 (stereo not given),-17.7%
Cc1cc(NC(=O)CCC(=O)N(CC(=O)NC2CCCC2)Cc2ccc(F)cc2)no1,-0.9%
CC1(C)CC(=O)C2=C(C1)NC(Nc1nc3ccccc3o1)=NC2c1cccnc1 (stereo not given),6.5%
O=[N+]([O-])c1ccc(NC(c2ccccc2)c2ccc3cccnc3c2O)cc1 (stereo not given),14.2%
O=C(COc1ccccc1F)Nc1c2c(nn1-c1ccccc1)CS(=O)(=O)C2,0.9%
CC(=O)Nc1c(NCC(C)C)c2ccccc2oc1=O,0.2%
CC(C)CSc1nnc(N)s1,24.3%
COc1cc(NC(=S)N2CCCC(C)C2)c(OC)cc1Cl (stereo not given),?
Cc1nc([N+](=O)[O-])c(NCCO)n1Cc1ccccc1,0.2%
Cc1ccccc1S(=O)(=O)NC1OC(=O)C(Cl)=C1Cl (stereo not given),?
Cc1ccccc1C(=O)N/N=C/c1ccncc1,7.2%
COc1ccc(NC(=O)c2ccc(COc3ccccc3OC)o2)cc1OC,-15.8%&12.3%
O=C(CSc1nc(-c2ccc(F)cc2)cs1)NC(=O)NCc1ccco1,2.2%
O=C(CCC(NC(=O)OCc1ccccc1)C(=O)O)OCc1ccccc1 (stereo not given),4.2%
Cc1ccc(C(=O)NNC2CC(=O)N(c3ccc4c(c3)OCCO4)C2=O)cc1 (stereo not given),-5.2%
O=C(CSc1nnc(SCc2ccc(F)cc2)s1)Nc1ccc(C(=O)O)cc1,-9.0%
CC(NS(=O)(=O)c1ccc2[nH]c(=O)c(=O)[nH]c2c1)C(=O)O (stereo not given),-15.1%
CC1CN=C(N(C(=S)Nc2ccccc2)c2cccc(C(F)(F)F)c2)S1 (stereo not given),-6.0%
CCn1cc(C(=O)N2CCCC(N3CCN(c4ccccc4C)CC3)C2)cn1 (stereo not given),-12.9%
CC[C@]12c3[nH]c4cc(CCC(=O)N(C)C)ccc4c3CCN1C(=O)[C@@H](CC(=O)NCCc1ccccn1)C[C@@H]2C(=O)N1CCN(C(=O)C2CC2)CC1,-7.3%
O=C(c1ccccc1-c1nc(-c2ccccc2)no1)N1CCCC1,10.2%
O=c1onc(-c2ccc(Cl)cc2)n1Cc1ccc(F)cc1,-11.6%
O=C(c1ccc(Cl)cc1)c1oc2ccccc2c1CS(=O)c1ccc(Cl)cc1 (stereo not given),-23.0%

# Five structures out of the list, arranged by count of non-hydrogen atoms, low to high:
SMILES,VDR inh
Cc1ccccc1C(=O)N/N=C/c1ccncc1,7.2%
COc1cc(NC(=S)N2CCCC(C)C2)c(OC)cc1Cl (stereo not given),?
CC1CN=C(N(C(=S)Nc2ccccc2)c2cccc(C(F)(F)F)c2)S1 (stereo not given),-6.0%
O=[N+]([O-])c1ccc(NC(c2ccccc2)c2ccc3cccnc3c2O)cc1 (stereo not given),14.2%
Cc1cc(NC(=O)CCC(=O)N(CC(=O)NC2CCCC2)Cc2ccc(F)cc2)no1,-0.9%

# Continuation:
SMILES,VDR inh
Cc1cccc(N(C)c2cc(C)nc3ncnn23)c1,-14.5%
O=C(COc1ccc(Cl)cc1Br)N1CCN(c2ccccc2)CC1,-1.6%
O=C(/C=C/c1cccc([N+](=O)[O-])c1)N1CCN(Cc2ccc3c(c2)OCO3)CC1,-2.1%
Cc1ccc(NC(=O)CSc2nc3nc(C)c(Cc4ccccc4)c(C)n3n2)cc1,12.4%
COc1ccc(Nc2nc3ccc(C)cc3nc2-n2nc(C)cc2C)cc1Cl,-14.0%
COc1cc(C(=S)N2CCOCC2)cc(OC)c1OS(=O)(=O)c1ccc(C)cc1,?
CCN(CC)S(=O)(=O)c1ccc(N2CCCCC2)c(NC(=O)C2CCN(C(=O)c3ccc(F)cc3)CC2)c1,2.9%
CC1(C)CC(NC(=O)CCc2nnc(CCCCc3ccccc3)o2)CCO1 (stereo not given),6.6%
C=CCN(C1CCCCC1)S(=O)(=O)c1ccc2c(c1)oc(=O)n2C,-25.1%
CCOC(=O)N1CCC(NC(=O)c2cnn(-c3cccc(F)c3)c2-n2cccc2)CC1,-2.5%
Cc1ccc(C)c(NC(=O)C2CC=CCC2C(=O)O)c1 (stereo not given),3.6%
O=C(Nc1ccccc1-c1nc2ccccc2s1)c1cc(Cl)cc(Cl)c1,4.3%
CCN1CCN(C(=S)c2ccc([N+](=O)[O-])cc2)CC1,70.8µM*
C[C@H](NC(=O)c1[nH]cnc1C(=O)Nc1ccon1)c1ccccc1,-9.3%
COc1cc(S(=O)(=O)Nc2ccccn2)ccc1F,1.9%
O=C(Nc1ccccc1)c1ccc(S(=O)(=O)N2CCCC2)cc1,-7.7%
CCOc1ccc(NC(=O)CC2SC(N)=NC2=O)c([N+](=O)[O-])c1 (stereo not given),-6.8%
O=C1CC(c2ccccc2)CN1C(=O)c1cccnc1 (stereo not given),8.6%
O=C1CC(c2ccccc2)Oc2ccccc21 (stereo not given),-1.6%&-23.3%
C=CCn1c(Cc2cccs2)nnc1SCC(=O)c1ccc2ccccc2c1,23.9%
COc1cccc(CNC(=O)C2CCN(S(=O)(=O)N3CC(C)CC(C)C3)CC2)c1 (stereo not given),5.5%
CCN(CC)c1c(-c2ccccc2)c2cc(C)ccc2[nH]c1=O,-18.0%
Cc1ccc(S(=O)(=O)CCC(=O)OCC(=O)N2c3ccccc3NC(=O)C2(C)C)cc1,-19.8%
CN=C(Nc1ccc(C)c(C)c1)SC1CC(=O)N(c2ccc(OC)cc2)C1=O (stereo not given),6.3%
O=C(c1ccco1)c1n[nH]nc1-c1ccccc1,6.5%
SMILES,VDR inh
Cc1cn2c(=O)c(S(=O)(=O)Nc3ccc(OC(F)(F)F)cc3)c(C)nc2s1,-4.3%
COc1ccc2[nH]cc(CCNc3ncnc4ccc(-c5cccnc5)cc34)c2c1,13.6%
CCOC(=O)c1cccc(NC(=O)CC2C(=O)N(c3ccccc3)C(=O)N2Cc2ccco2)c1 (stereo not given),7.3%
O=c1nc2ccccc2c2n1CC(CN1CCN(C(c3ccccc3)c3ccccc3)CC1)N2 (stereo not given),4.2%
O=S(=O)(c1ccc2c(c1)OCO2)N1CCN(c2nnnn2-c2ccccc2)CC1,-8.7%
NNC(=O)c1ccc(Cn2cc(Br)cn2)cc1,-17.9%
Cc1ccc(C(=O)NCC2CCCN2S(=O)(=O)c2ccc(C)cc2)cc1 (stereo not given),0.8%
FC(F)(F)c1ccccc1/C=N/Nc1ccccn1,-0.1%
CC(C)=CCSc1nnc([C@@H](NC(=O)OC(C)(C)C)C(C)C)o1,-15.7%
CCN(C(=O)CSc1cc(C)c2ccc(OC)cc2n1)C1CCS(=O)(=O)C1 (stereo not given),-0.5%
C=CCNS(=O)(=O)c1cccc2cc(C(=O)O)c(O)cc12,-8.5%
CCN(C(=O)COC(=O)c1[nH]c(=O)[nH]c(=O)c1N)c1ccccc1,9.3%
CC(C)(C)C(=O)Nc1ccc2nc(SCCOc3ccccc3Cl)sc2c1,-1.8%
S=C(NCCCCNC(=S)NCc1ccccc1)NCc1ccccc1,4.4%
Cc1ccc(N2C(=O)C(CN3CCCC3)C2c2ccccc2)cc1 (stereo not given),2.3%
COC(=O)c1ccc(NC(=O)Cn2c(-c3nonc3N)nc3ccccc32)cc1,-9.3%&1.9%
CC(C1CCN(Cc2cn(C)nc2-c2cccc(Cl)c2)CC1)N1CCOCC1 (stereo not given),-1.8%
Cc1c(Cl)cccc1NC(=O)Nc1c(C)n(C)n(-c2ccccc2)c1=O,-5.3%
Cc1occc1C(=O)N1CCN(Cc2ccccc2)CC1,-0.8%
Cc1ccccc1NC(=O)c1ccc(CNS(=O)(=O)c2ccc3c(c2)C(C)(C)C(=O)N3C)cc1,11.2%
CC(C)NC(=O)CCCc1c[nH]c2ccccc12,-0.5%
O=C(COc1ccc(Cl)cc1Cl)c1ccc[nH]1,9.2%
CCOC(=O)N1CCC(N2C(=O)c3ccccc3C2Nc2cc(C(=O)OC)cc(C(=O)OC)c2)CC1 (stereo not given),-4.4%
Cc1cc2nn(-c3ccc(Cl)cc3)nc2cc1N,-23.6%
CN(C(=O)c1cccc(NC(=O)Cc2ccc(NC(=O)C3CCCN(C(=O)C4CCCC4)C3)cc2)c1)C1CC1 (stereo not given),-16.3%

# Reprinted from the listing for reference:
SMILES,VDR inh
Cc1ccc(S(=O)(=O)CCC(=O)OCC(=O)N2c3ccccc3NC(=O)C2(C)C)cc1,-19.8%
CN=C(Nc1ccc(C)c(C)c1)SC1CC(=O)N(c2ccc(OC)cc2)C1=O (stereo not given),6.3%
O=C(c1ccco1)c1n[nH]nc1-c1ccccc1,6.5%
Cc1cn2c(=O)c(S(=O)(=O)Nc3ccc(OC(F)(F)F)cc3)c(C)nc2s1,-4.3%
COc1ccc2[nH]cc(CCNc3ncnc4ccc(-c5cccnc5)cc34)c2c1,13.6%
CCOC(=O)c1cccc(NC(=O)CC2C(=O)N(c3ccccc3)C(=O)N2Cc2ccco2)c1 (stereo not given),7.3%
O=c1nc2ccccc2c2n1CC(CN1CCN(C(c3ccccc3)c3ccccc3)CC1)N2 (stereo not given),4.2%
O=S(=O)(c1ccc2c(c1)OCO2)N1CCN(c2nnnn2-c2ccccc2)CC1,-8.7%
NNC(=O)c1ccc(Cn2cc(Br)cn2)cc1,-17.9%
Cc1ccc(C(=O)NCC2CCCN2S(=O)(=O)c2ccc(C)cc2)cc1 (stereo not given),0.8%
FC(F)(F)c1ccccc1/C=N/Nc1ccccn1,-0.1%
CC(C)=CCSc1nnc([C@@H](NC(=O)OC(C)(C)C)C(C)C)o1,-15.7%
CCN(C(=O)CSc1cc(C)c2ccc(OC)cc2n1)C1CCS(=O)(=O)C1 (stereo not given),-0.5%
C=CCNS(=O)(=O)c1cccc2cc(C(=O)O)c(O)cc12,-8.5%
CCN(C(=O)COC(=O)c1[nH]c(=O)[nH]c(=O)c1N)c1ccccc1,9.3%
CC(C)(C)C(=O)Nc1ccc2nc(SCCOc3ccccc3Cl)sc2c1,-1.8%
S=C(NCCCCNC(=S)NCc1ccccc1)NCc1ccccc1,4.4%
Cc1ccc(N2C(=O)C(CN3CCCC3)C2c2ccccc2)cc1 (stereo not given),2.3%
COC(=O)c1ccc(NC(=O)Cn2c(-c3nonc3N)nc3ccccc32)cc1,-9.3%&1.9%
CC(C1CCN(Cc2cn(C)nc2-c2cccc(Cl)c2)CC1)N1CCOCC1 (stereo not given),-1.8%
Cc1c(Cl)cccc1NC(=O)Nc1c(C)n(C)n(-c2ccccc2)c1=O,-5.3%
Cc1occc1C(=O)N1CCN(Cc2ccccc2)CC1,-0.8%
Cc1ccccc1NC(=O)c1ccc(CNS(=O)(=O)c2ccc3c(c2)C(C)(C)C(=O)N3C)cc1,11.2%
CC(C)NC(=O)CCCc1c[nH]c2ccccc12,-0.5%
O=C(COc1ccc(Cl)cc1Cl)c1ccc[nH]1,9.2%

# (continued)
SMILES,VDR inh
CCCCNc1ccc2c3c(cccc13)C(=O)N(CCCC)C2=O,-5.1%
CC(C)CCNC(=O)C1CCN(Cc2cccc(OCc3ccccc3)c2)CC1,-21.2%
O=C(Nc1cc2c(cc1Cl)OCCCO2)c1ccc(F)cc1,-15.0%
CC(=O)c1ccc(N2CCN(C(=O)c3c(-c4ccccc4Cl)noc3C)CC2)cc1,-6.5%
CC1CC(C)(C)CC(=O)C1C(=O)c1ccccc1 (stereo not given),-26.3%
CC(C)(C)CC(=O)O/N=C(\N)c1ccccn1,-0.1%
CCCCCCC(C)n1cc(C(C)=O)c(=O)[nH]c1=O (stereo not given),-1.3%
Cc1ccc(-n2c(SCC(N)=O)nnc2-c2ccccn2)cc1,14.7%
Cc1cc(NC(=O)Cn2nnc3sc4c(c3c2=O)CCC(C(C)(C)C)C4)no1 (stereo not given),18.4%
COc1cc(OC)cc(-c2c(C#Cc3ccsc3)c3cc(-c4ccc(OC)c(OC)c4)ccc3n2C)c1,-0.7%
CCc1ccccc1NC(=O)N1CCCC(CCC(=O)N(C)CCc2ccccn2)C1 (stereo not given),2.9%
CC1(C)CCC2=C(O1)c1ccccc1C(=O)C2=O,8.91µM*
O=C1CCc2cc(S(=O)(=O)N3CCC(C(=O)NC4CCCc5ccccc54)CC3)ccc2N1 (stereo not given),-14.4%
CCOC(=O)c1cc2nc(OCC)nc(OCC)c2[nH]1,1.8%
O=C(Nc1ccncc1)c1ccc(NS(=O)(=O)c2cccc(F)c2)cc1,-12.1%
CN(C)c1nc(C(=O)Nc2ccccc2)nc(N(C)C)n1,-2.1%
Cc1c(C(=O)OCc2ccccc2)[nH]c2c1C(=O)CC(c1ccc(C(C)(C)C)cc1)C2 (stereo not given),-14.5%
O=C(O)CCNC(=O)CCCn1nnc2ccccc2c1=O,-5.6%
CCCCCCN1N=C(C)C(C(=O)c2ccc(Cl)cc2)C1=O (stereo not given),-14.5%
CCOc1cc(/C=N/n2c(COc3ccccc3)n[nH]c2=S)ccc1O,-11.6%
O=P1(c2ccccc2)C=Cn2c1cc1c2CCCC1 (stereo not given),?
O=C1N/C(=N/O)S/C1=C/c1cccc([N+](=O)[O-])c1,9.9%
COc1cc(C2CC(=O)Oc3c2c(=O)n(C)c2ccccc32)ccc1O (stereo not given),2.7%&-15.5%
O=C(Cc1ccccc1)N/N=C/c1ccc(Cl)cc1Cl,6.8%

# Screens: PubChem BioAssay, National Center for Advancing Translational Sciences (NCATS)
